Assay outcomes from PubChem.
VDR inhibitor – Inhibitors of the vitamin D receptor (VDR): qHTS; Potency, µM, for inactives: max response, negative = inhibition, hits mostly inhibitors; VDR-SRC2-3 peptide fluorescence polarization, 2 h; actives 0.93% (n = 400,000); Vitamin D3 receptor (Homo sapiens), P11473; AID 504847, 2011; active = well fitted inhibition curve with a large enough effect; inconclusive = small, poorly fitted or top-dose-only effect, or another doubt; inactive = no such curve, though single readings can be large or run the other way; note: series mostly up to about 120 µM
Target sequence (P11473 whole entry, looked up): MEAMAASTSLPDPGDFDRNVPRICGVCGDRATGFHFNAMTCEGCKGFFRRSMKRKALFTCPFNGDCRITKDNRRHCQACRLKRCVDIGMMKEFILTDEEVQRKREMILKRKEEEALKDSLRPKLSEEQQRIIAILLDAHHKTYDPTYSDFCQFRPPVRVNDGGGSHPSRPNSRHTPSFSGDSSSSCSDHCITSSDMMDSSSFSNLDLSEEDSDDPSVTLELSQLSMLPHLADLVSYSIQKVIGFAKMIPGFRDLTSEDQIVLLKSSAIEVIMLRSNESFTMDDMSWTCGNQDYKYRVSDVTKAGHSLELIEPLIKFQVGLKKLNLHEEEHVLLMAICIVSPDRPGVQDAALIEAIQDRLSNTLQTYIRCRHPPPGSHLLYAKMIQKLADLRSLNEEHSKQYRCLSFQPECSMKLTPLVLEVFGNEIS
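VDR–SRC2-3 interaction, FP format. Cmpds 23 nl via pintool, brief spin, 2 h ambient incubation.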
Active calls of the source: *; ? = inconclusive; [ ] = dose if it differs, or a comment. % is set by controls: 0 for no effect and ±100 for the full control effect; potency is the fitted concentration of half-maximal effect. The list is partial (hit frequency here may not be typical).

VDR inhibitor,SMILES
11%,Nc1c(-c2ccccc2)c(CSc2nc3ccccc3[nH]2)nn1-c1cccc(Cl)c1
-21%,S=C(NCCc1ccccc1)N1CCN(C(c2ccccc2)c2ccccc2)CC1
3%,O=C(NCc1ccc(N2CCCC2=O)cc1)NC1CCCCC1
-3%,COc1ccc(S(=O)(=O)NNC(=O)Nc2ccc(F)cc2)cc1
8%,Cc1c(C#N)c(N=CN(C)C)c(C(=O)c2ccccc2)n1-c1ccccc1
7%,N#CCC(=O)Nc1ccc(C(=O)OCC(=O)NC(=O)Nc2ccc3c(c2)OCCO3)cc1
10%,Cc1cccc(C(=O)Nc2ccc(C(=O)N/N=C/c3cccc(C)n3)cc2)c1
8%,Cc1cc(NC(=O)C2CCCCC2C(=O)O)ccc1NC(=O)c1ccccc1 (centres undefined)
-3%,O=C(CSc1nc2ccccc2nc1Cc1ccccc1)N1CCN(c2ccccc2)CC1
7%,Cc1nc2cnc(N3CCN(C)CC3)nc2n(CCc2ccccc2)c1=O
-18%,COc1ccc(C(C(=O)NCC2CCCO2)N(C(=O)CNC(=O)c2cccs2)c2ccc(NC(C)=O)cc2)cc1OC (centres undefined)
-11%,CCOC(=O)c1cc2c(ccn2C)n1CC(=O)N1CCC(Cc2ccccc2)CC1
-5%,O=S(=O)(NCc1cccnc1)c1cccs1
23%,COc1cccc(NC(=O)COc2ccc(C)cc2)c1
6%,CCCN(CCC)CCCNS(=O)(=O)c1ccc2c(c1)oc(=O)n2C
7%,COc1cc(Nc2nc(SCc3cccc(Cl)c3)nc3ccccc23)cc(OC)c1
-21%,Cc1ccc2nc(SCC(=O)c3ccc4c(c3)NC(=O)CO4)[nH]c2c1
21%,CCOc1ccc(S(=O)(=O)Nc2ccccn2)c2ccccc12
-8%,CCN(CCC(=O)Nc1ccc(Br)c(C)c1)Cc1ccccc1
-20%,Cc1nc2ccccc2cc1OCc1ccc(F)cc1
10%,COc1ccc(SN=C2C(C)=CC(=O)C=C2C)cc1
8%,O=C(Cc1cccc2ccccc12)Nc1ccc(-c2cc3ccccc3oc2=O)cc1
-28%,Cc1c(Cl)cccc1NC(=O)Cn1c(CCC(=O)O)ccc1-c1ccc(Cl)cc1
13%,N#Cc1ccccc1S(=O)(=O)N1CCN(C(=O)C2CC(=O)N(c3ccc4c(c3)OCCO4)C2)CC1 (centres undefined)
-4%,COc1ccc(C(=O)Nc2nc3ccc(S(C)(=O)=O)cc3s2)cc1
3%,Cc1ccc(-c2cc(C)nc3nc(N)nn23)cc1
-8%,O=C(NCC(c1ccco1)N1CCc2ccccc2C1)C(=O)Nc1cc(F)ccc1F (centres undefined)
9%,O=C(COc1ccc(Cl)cc1)NCC(c1ccco1)S(=O)(=O)c1ccccc1 (centres undefined)
-16%,CC1CCN(C2(O)C(=O)Nc3ccc(Cl)cc32)CC1 (centres undefined)
?,Nc1n[nH]c(=S)n1-c1ccc(Cl)cc1

Six records picked at random from those above:
VDR inhibitor,SMILES
3%,Cc1ccc(-c2cc(C)nc3nc(N)nn23)cc1
-5%,O=S(=O)(NCc1cccnc1)c1cccs1
7%,COc1cc(Nc2nc(SCc3cccc(Cl)c3)nc3ccccc23)cc(OC)c1
9%,O=C(COc1ccc(Cl)cc1)NCC(c1ccco1)S(=O)(=O)c1ccccc1 (centres undefined)
-28%,Cc1c(Cl)cccc1NC(=O)Cn1c(CCC(=O)O)ccc1-c1ccc(Cl)cc1
-16%,CC1CCN(C2(O)C(=O)Nc3ccc(Cl)cc32)CC1 (centres undefined)

More records.
VDR inhibitor,SMILES
3%,O=C(CN1CCN(C(=O)CCC(=O)N2CCC(c3ccccc3)=N2)CC1)Nc1ccc(F)cc1
?,CCOC(=O)c1ccc(N=Cc2c(O)c3ccccc3oc2=O)cc1
-6%,O=C(c1cccnc1)N(Cc1ccccc1)C(=O)c1cccnc1
4%,Cn1c(-c2ccccc2)c[n+]2c1-c1ccccc1C2
-19%,CC(C)(C)c1ccc(/C=C/C(=O)N2CCN(c3ncccn3)CC2)cc1
4%,CCCNC(=O)CS(=O)(=O)Cc1nc(-c2cccc(OC)c2)oc1C
-7%,O=C(CSc1nnc2ccc(-c3cccnc3)nn12)Nc1ccc(F)cc1F
?,O=[N+]([O-])c1cc([N+](=O)[O-])c2nonc2c1Nc1ccc(O)cc1
6%,COc1ccc(S(=O)(=O)NCC(c2ccc(C)cc2)N2CCN(C)CC2)cc1 (centres undefined)
-12%,O=C(Nc1cccnc1)Nc1ccccc1Cl
16%,COc1ccc(/C=N\NC(=O)c2ccccc2)cc1COc1ccccc1
9%,CCOc1ccccc1NC(=O)CSC1=NN2CCCC(=O)N=C2S1
3%,CCC(=O)N/N=C(\C)CC(=O)Nc1ccccc1-c1ccccc1
-10%,CN(C(=O)c1cccc(NC(=O)Cc2cccc([N+](=O)[O-])c2)c1)C1CCCCC1
3%,COc1cc(OC)cc(N(C(=O)C2COc3ccccc3O2)C(C(=O)NC2CCCCC2)c2ccc(O)cc2)c1 (centres undefined)
-5%,O=S(=O)(c1cccc(NC(=S)Nc2ccc(Br)cc2Cl)c1)N1CCOCC1
5%,O=C(CSc1nc2ccccc2c(=O)n1-c1ccccc1)N1CCc2ccccc21
5%,Cc1c(Cc2ccc3c(c2)OCO3)sc(NC(=O)C(C)(C)C)c1C#N
-3%,COc1cc(OC)c(OC)cc1/C=C1\Oc2cc(OCC(=O)N3Cc4ccccc4C[C@H]3C(=O)O)ccc2C1=O
11%,CCC(=O)N1c2ccccc2CC1C(=O)NCCc1ccccc1 (centres undefined)
147%[activator],CN(c1ccc(Cl)cc1)S(=O)(=O)c1nnc(NC(=O)C(C)(C)C)s1
0%,COc1ccc(-n2nc(C(=O)NCC(=O)N3CCN(c4ccc(F)cc4)CC3)c3ccccc3c2=O)c(OC)c1
17%,CC12CCC(C(=O)NNC(=O)c3ccccc3)(OC1=O)C2(C)C (centres undefined)
-9%,CCOc1ccc(CNC(=O)CCS(=O)(=O)Cc2ccccc2C)cc1OC
0%,Cc1cccc(N2CCN(C(=O)c3cnn(-c4cccc(Cl)c4C)c3C3CCNCC3)CC2)c1C
-2%,CN(C(=O)Cc1c(C(=O)O)n(C)c2ccccc12)c1cccc(C(F)(F)F)c1
0%,O=C(CSc1nnc2c3c4c(sc3ncn12)CCCC4)NCc1ccco1
0%,Cc1c2cnn(CC(=O)N3CCN(c4ccc(F)cc4)CC3)c(=O)c2c(C)n1Cc1ccccc1F
0%,CCC(CC)C(=O)Nc1cc(C(=O)NCCc2ccccc2)ccc1Cl
12%,COc1ccccc1CNC(=O)COC(=O)c1c[nH]c2ccccc12

Carrying on:
VDR inhibitor,SMILES
-1%,Cc1noc(C)c1NC(=O)Nc1ccc2c(c1)C(=O)N([C@H](C)CO)C[C@H](C)[C@@H](CN(C)S(=O)(=O)c1cn(C)cn1)O2
27%,CN1CCC(=NNC(=O)C(=O)Nc2ccc(F)cc2)CC1
7%,Cc1ccc2nc(-c3ccccc3)cn2c1
-11%,CCOc1ccc(NCc2nnc(SCC(=O)Nc3cc(C)on3)n2-c2ccc(OC)cc2)cc1
-6%,CCC(C)c1ccc(OCC(=O)Nc2cccc(-c3nc4ncccc4o3)c2)cc1 (centres undefined)
-5%,Cc1ccc(NC(=S)NNC(=O)CSc2nc3ccccc3c(=O)n2-c2ccc(C)cc2)cc1
2%,Cc1cccc(CNc2cc(-c3cccc(C#N)c3)ncn2)c1
2%,COc1ccc(Cn2c(-c3ccc(Cl)cc3)c[n+]3ccccc23)cc1
4%,O=c1oc2c(CN3CCCCC3)c(O)ccc2cc1-c1nc2ccccc2[nH]1
12%,COC(=O)c1ccc(NC(=O)c2ccc(C)cc2)o1
-10%,Cc1ccccc1N(CC(=O)N/N=C/c1ccc(F)cc1)C(=O)c1ccccc1
-27%,O=C(CNC(=O)c1cccc(Cl)c1)N/N=C/c1cccnc1
4%,Cc1c(NC(=S)NC(=O)c2ccco2)c(=O)n(-c2ccccc2)n1C
-7%,CCN(CC(=O)NC1CCS(=O)(=O)C1)S(=O)(=O)c1ccc(C)cc1C (centres undefined)
-1%,COc1ccc(NC(=O)CCCC(=O)NCCc2ccc(OC)c(OC)c2)cc1
-3%,O=C(Nc1ccncc1)C1CC(=O)N(Cc2ccccc2)C1 (centres undefined)
-13%,CCNC(=S)NN(c1ccccc1)c1ccccc1
-5%,Cc1cc(NC(=O)CCN2CCC(C)CC2)ccc1Br
-4%,COCCCNC(=O)C[C@H]1C[C@H](C(=O)N2CCCCC2)[C@@]2(CCc3ccccc3)c3[nH]c4cc(CCC(=O)N(C)C)ccc4c3CCN2C1=O
-14%,Cn1c(=O)c2c(nc(NCCCN3CCOCC3)n2Cc2ccc(Cl)cc2)n(C)c1=O
-1%,Cc1nn(CCCC(=O)NCc2ccccc2)c(C)c1[N+](=O)[O-]
-24%,C/C(=N/OC(=O)c1ccccc1Br)c1ccc(C)cc1
-7%,CSc1ccccc1NC(=O)CN(C)C(=O)Cc1c[nH]c2ccccc12
-17%,CC(=O)Nc1sc2c(c1C(c1ccccn1)N1CCCC1)CCCC2 (centres undefined)
-2%,CN(Cc1ccccc1)C(=O)c1[nH]cnc1C(=O)Nc1ccon1
-1%,Cc1cc2c(c(=O)o1)C(CCC1CCCCC1)C(C#N)=C(N)O2 (centres undefined)
-2%,Cc1ccc(-c2nc3n(n2)C(=O)CC(c2ccc(Cl)cc2)S3)cc1 (centres undefined)
-10%,CN1CCN(C(=O)Nc2cccc3ccccc23)CC1
-5%,CC(/C=N/NC(=O)c1nn(C)c(C)c1Br)=C\c1ccccc1
0%,Cc1ccc(NS(=O)(=O)c2cccc3cccnc23)c(Br)c1

Next part
VDR inhibitor,SMILES
19%,COCCn1c(SCc2csc(-c3ccccc3)n2)nc2ccccc21
18%,Cc1nn(-c2ccccc2)c(Cl)c1C(=O)OCC(=O)NCCc1ccccc1
8%,Cc1ccccc1NC(=O)c1ccc(F)c(S(=O)(=O)NCC2CCCO2)c1 (centres undefined)
-4%,O=C(Nc1nc(-c2ccccn2)cs1)c1ccc(Cl)s1
-17%,Cc1cccnc1NC(=O)/C=C/c1ccc2c(c1)OCO2
-9%,O=C(NN=Cc1ccc(F)cc1)C1CC1
0%,COc1ccc(C)cc1S(=O)(=O)N1CCC(C(=O)NC2CCCC2)CC1
2%,O=C(NCCSc1c(-c2ccc(Cl)cc2)[nH]c2ccccc12)c1ccc(S(=O)(=O)N2CCOCC2)cc1
2%,Cn1ccnc1C(=O)c1ccccc1Cl
25%,CCN1CCN(c2nc3c(c(=O)[nH]c(=O)n3C)n2CCCc2ccccc2)CC1
2%,Cc1sc(NC(=O)CN(C(=O)c2ccccc2F)C2CCCC2)c(C(N)=O)c1C
-15%,COc1cc(OC)c(C(=O)OC(C)C(=O)Nc2cc(C(F)(F)F)ccc2Cl)cc1OC (centres undefined)
-3%,Cc1ccc(OCC(=O)Nn2c(C)nc3ccccc3c2=O)c(C(C)C)c1
10%,O=C(Nc1ccc(Cl)cc1)Nc1nnc(SCc2ccc(Cl)cc2)s1
-13%,O=C1C2CCCN2C(c2ccc(F)cc2)N1c1nccs1 (centres undefined)
-1%,CCOC(=O)c1sc(N(Cc2ccccc2)C(=O)CSc2ncn[nH]2)nc1C
20%,CC(=O)c1ccc(NS(=O)(=O)Cc2ccc(Cl)cc2)cc1
-21%,O=S(=O)(c1ccc(=S)[nH]c1)N1CCOCC1
-20%,COc1cc(C2CC(=O)c3c([nH]c(C(=O)OCCOC(C)C)c3C)C2)cc(OC)c1OC (centres undefined)
13%,O=C(c1cc(-c2ccc(Br)cc2)n[nH]1)N1CCN(C(=O)c2ccccc2Br)CC1
-18%,O=C(C1CCCCC1)N1CCN=C1SCc1cccc([N+](=O)[O-])c1
-17%,CS(=O)(=O)c1ccc2nc(NC(=O)c3ccccc3)sc2c1
-25%,Cc1cc(NC(=O)c2cc(-c3ccc(C)s3)nc3ccccc23)no1
0%,O=C1Nc2ccccc2C1(O)Cc1ccncc1 (centres undefined)
-2%,Cc1cccc(NC(=O)Cn2cc(S(=O)(=O)Cc3ccccc3Cl)c3ccccc32)c1
-20%,COc1ccc(C)cc1NC(=O)C(=O)NNC(=O)COc1ccc(Cl)cc1
-1%,CC(C)C(=O)N1c2ncnn2C2(CCCCC2)[C@@H]2CCCC[C@@H]21
-13%,O=S(=O)(NCCO)c1ccc2c(c1)Cc1cc(S(=O)(=O)NCCO)ccc1-2
-8%,COc1ccc(OC)c(NC(=O)CCC(=O)Nc2nnc(C(C)C)s2)c1
-23%,CCCCn1c(N)c(N(CCOC)C(=O)CSc2n[nH]c(-c3ccc(OC)cc3)n2)c(=O)[nH]c1=O

Part of the list above in order of count of non-hydrogen atoms, falling.
VDR inhibitor,SMILES
-20%,COc1cc(C2CC(=O)c3c([nH]c(C(=O)OCCOC(C)C)c3C)C2)cc(OC)c1OC (centres undefined)
-15%,COc1cc(OC)c(C(=O)OC(C)C(=O)Nc2cc(C(F)(F)F)ccc2Cl)cc1OC (centres undefined)
25%,CCN1CCN(c2nc3c(c(=O)[nH]c(=O)n3C)n2CCCc2ccccc2)CC1
-13%,O=S(=O)(NCCO)c1ccc2c(c1)Cc1cc(S(=O)(=O)NCCO)ccc1-2
-17%,CS(=O)(=O)c1ccc2nc(NC(=O)c3ccccc3)sc2c1
-4%,O=C(Nc1nc(-c2ccccn2)cs1)c1ccc(Cl)s1

Remaining list, next part:
VDR inhibitor,SMILES
8%,Cc1ccc2[nH]c(=O)c(CN(CCc3ccccc3)C(=O)N3CCOCC3)cc2c1
5%,O=S(=O)(c1ccc2ccccc2c1)N1CCN(C2Cc3ccccc3C2)CC1
-4%,Cc1c(Cl)c([N+](=O)[O-])nn1Cc1ccc(C(=O)N/N=C\c2ccccn2)o1
-3%,Cc1ccc(-c2c3c(=O)n(C)c(=O)n(C)c3c3c(-c4cccc(C)c4)nc4ccccc4n23)cc1
12%,Cc1ccc(Nc2ncnc3c2cnn3C)cc1
0%,COc1cccc2sc(N(C)c3ccccc3)nc12
